RGS16-Gao – modulates binding between human RGS16 and Galphao; O15492+P09471; bead-based flow cytometry RGS16-Galphao binding, fluorescence; actives lie on both sides; binding response (% of control), % at 10 µM; 220,000 tested, 0.38% active;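 active means below 25% or above 175%, edge rows of some plates excepted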;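 further: Galphao activated by GDP with aluminum fluoride before binding; 100% = wells without compound and 0% = beads without RGS; some results beyond the cut were filed as inactive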
Insulin prom inh – TRM-6 insulin promoter activity inhibition. TRM-6 cells (human fetal islet line), insulin promoter-eGFP reporter, imaging; reporter expression induced with tamoxifen. AID 1273. 130,000 tested, 0.9% active. inhibition, % at 2 µM;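 active means inhibition above the mean plus 3 SD, with well images judged a real hit on visual review, cut at about 60% in these data, passing the limit was not always enough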
PKD1 inh – inhibitors of human PKD1 kinase; Q15139; PKD1 kinase fluorescence polarization assay; inhibition, %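 (about 10 µM by stock and volumes)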; 200,000 tested, 0.056% active; AID 797;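 active means inhibition of 50% or more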;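 further: controls were vehicle for no effect and a reference inhibitor for full effect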
Target sequence (Q15139 whole entry, looked up): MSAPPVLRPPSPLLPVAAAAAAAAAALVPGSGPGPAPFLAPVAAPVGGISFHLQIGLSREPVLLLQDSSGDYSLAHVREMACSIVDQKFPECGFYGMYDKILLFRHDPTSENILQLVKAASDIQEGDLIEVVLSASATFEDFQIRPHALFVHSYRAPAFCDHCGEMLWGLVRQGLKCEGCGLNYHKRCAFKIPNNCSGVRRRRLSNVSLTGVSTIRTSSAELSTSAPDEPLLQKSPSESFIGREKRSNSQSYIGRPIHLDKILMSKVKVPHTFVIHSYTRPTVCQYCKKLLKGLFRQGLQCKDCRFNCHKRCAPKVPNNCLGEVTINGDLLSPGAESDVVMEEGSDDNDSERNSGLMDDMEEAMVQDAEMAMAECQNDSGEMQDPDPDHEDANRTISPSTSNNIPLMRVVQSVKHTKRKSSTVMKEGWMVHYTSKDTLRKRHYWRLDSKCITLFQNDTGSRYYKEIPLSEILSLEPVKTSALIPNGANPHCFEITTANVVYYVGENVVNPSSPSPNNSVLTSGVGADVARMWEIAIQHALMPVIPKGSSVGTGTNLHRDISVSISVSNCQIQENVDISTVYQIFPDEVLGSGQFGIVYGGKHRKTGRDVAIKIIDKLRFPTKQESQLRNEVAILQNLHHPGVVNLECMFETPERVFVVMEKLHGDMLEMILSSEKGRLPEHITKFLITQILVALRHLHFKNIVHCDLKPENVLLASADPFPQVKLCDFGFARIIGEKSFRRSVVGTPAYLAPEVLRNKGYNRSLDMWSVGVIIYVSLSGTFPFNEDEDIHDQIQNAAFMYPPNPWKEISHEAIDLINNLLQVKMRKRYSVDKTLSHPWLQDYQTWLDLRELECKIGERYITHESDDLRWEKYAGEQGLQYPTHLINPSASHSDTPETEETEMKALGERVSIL
HSV replic up – increases HSV replication in cells | HSV replication augmentation in cells, fold increase | AID 1956 | 220,000 tested, 0.005% active | maximum fold increase;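 active means peak rise of 1.5-fold or more in the series; tested in PC3 cells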;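 further: first round at 10 µM; read as green reporter fluorescence; hits show the peak of a series up to 25 µM; 1 = signal of infected wells without compound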
GALR2 ag – agonists of human galanin receptor 2 (GALR2); GALR2-expressing cells, agonist activation read-out; activation, %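 (tested at 5 µM)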; 140,000 tested, 0.48% active; O43603;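 active means above mean plus 3 SD of all compounds, about 5% in these data, not always enough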;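 further: 0% = vehicle buffer wells and 100% = reference agonist at full effect; tested in CHO reporter cells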
Insulin prom inh cell count – recorded beside Insulin prom inh, whose call it bears; normalized cell count, %; measured here: cell count, toxicity; reference of the scale not given here;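 cells exposed to compound for 48 h; stained nuclei by imaging scaled within each plate; lower means fewer cells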
HSV replic up primary fold – recorded beside HSV replic up, whose call it bears; fold increase; compound at 10 µM; measured here: primary screen fold increase 10 uM; tested in PC3 cells;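 GFP signal in the first replicate; 1 = infected wells without compound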
Starred values were filed as active, the others as inactive; i = inactive; . = no result given.

SMILES	RGS16-Gao	Insulin prom inh	Insulin prom inh cell count	PKD1 inh	HSV replic up	HSV replic up primary fold	GALR2 ag
CO/N=C/NC(=O)N1OC[C@@H]2COc3ccc4ccccc4c3[C@@H]21	104	32	128	2	i	0.93	-1.5
O=C(Cn1c(N2CCN(C/C=C/c3ccccc3)CC2)nc2ccccc21)c1ccccc1	108	.	.	-6	i	0.98	.
CN1Cc2c(N3CCOCC3)nc(SCc3ccccc3)c(C#N)c2CC1(C)C	97	.	.	3	i	0.77	-0.4
CC(C)(C)[C@H]1C=C(C(=O)Nc2ccccc2)O[C@@H](OCc2ccc(CO)cc2)C1	105	.	.	0	i	0.77	.
COC(=O)c1cccc(NC(=O)c2cccs2)c1C	103	40	137	0	i	1	-1.6
COc1cc(/C=C2\CCCc3c2nc2ccccc2c3C(=O)O)cc(OC)c1O	106	.	.	.	i	0.94	.
Cc1nc2c(nnn2Cc2ccccc2)c(=O)[nH]1	100	35	103	2	i	0.97	.
CCCNc1ncnc2nc[nH]c12	100	.	.	-4	i	0.86	-1.0
O=C(O)/C=C/c1ccc(S(=O)(=O)N2CCCCCC2)cc1	99	.	.	1	i	1	.
COc1ccc(-c2cc(N)n(S(=O)(=O)c3ccc(C)cc3)n2)c(OC)c1	98	.	.	-2	i	1	-2.4
Cc1cccc(-c2n[nH]c(=S)n2/N=C/c2ccc(C)s2)c1	91	-6	107	6	i	0.83	-0.2
O=S(=O)(NCc1ccccn1)c1ccccc1	101	7	126	-1	i	0.94	-2.8
CC(=O)C1=C(C)NC(=O)NC1c1cc(Br)ccc1OCC(N)=O (configuration not stated)	104	-46	64	2	i	0.97	-1.9
Cc1cccc(NC(=S)NC2CCN(Cc3ccccc3)CC2)c1C	162	.	.	-9	.	.	-0.3
COc1ccc2nc(N3CCCC(O)C3)c(C#N)cc2c1 (configuration not stated)	99	.	.	3	.	.	-2.9
Cc1cccc(N2CC(O)(c3cccs3)[N+]3=C2CCCCC3)c1 (configuration not stated)	98	-54	75	-7	i	0.79	.
CCCCCC(=O)NCc1c(C(F)(F)F)nn(C)c1N1CCOCC1	96	.	.	5	i	0.95	.
CCc1nnc(NC(=O)C2CCC(CNc3c(N4CCCCC4)c(=O)c3=O)CC2)s1 (configuration not stated)	96	.	.	.	i	1.1	.
CC(=O)NCCC(=O)Nc1cc(S(=O)(=O)N2CCOCC2)ccc1N1CCOCC1	104	18	91	0	i	0.98	.
NC(=O)[C@H]1CC2(CC(c3cccc(NC(=O)[C@H]4CCC(=O)N4)c3)=NO2)CN1C(=O)c1ccccc1C(=O)c1ccccc1 (some centres not stated)	102	.	.	.	i	0.8	.
CCOc1ccc(NC(=O)CN2C(=O)/C(=C3\SC(=S)N(C4CCS(=O)(=O)C4)C3=O)c3ccccc32)cc1 (configuration not stated)	96	.	.	.	i	0.92	.
O=C(COc1ccc(F)cc1)Nc1nnc(-c2ccncc2)s1	103	9	274	-4	i	0.9	-3.5
Cc1cc(C)cc(NC(=O)CCN2CC(C)OC(C)C2)c1 (configuration not stated)	104	.	.	-12	i	0.88	-0.1
COc1ccc(N2CCN(C3CC(=O)N(C)C3=O)CC2)cc1 (configuration not stated)	98	-23	97	-1	i	0.93	-0.5
CCn1ncc(Br)c1C(=O)Nc1ccc(C(=O)OC(C)C)cc1	92	-21	94	-4	i	0.93	0.6
CC1=Nc2ccc3ccccc3c2C1(C)C	105	-160	133	-1	.	.	.
CC(NC(=O)Nc1ccc([N+](=O)[O-])cc1)C(c1ccccc1)N1CCOCC1 (configuration not stated)	104	-7	63	-10	i	0.92	.
CCC/C(=N/NC(=O)c1ccc2c(c1)OCO2)c1cccs1	121	38	81	1	i	0.82	-0.5
CC1=C(C)[N+](=O)C2CCCCC2N1[O-] (configuration not stated)	103	16	111	-5	i	0.88	0.2
Cc1ccc(/C=N/n2c(C3CCCCC3)n[nH]c2=S)o1	100	-21	126	-13	i	1.1	-0.6
O=C(Nc1ccc(NC(=O)c2sc3ccccc3c2Cl)cc1)c1ccco1	95	.	.	6	i	0.69	-0.1
CCN(Cc1ccncc1)C(=S)NCc1ccccc1	102	.	.	-3	i	0.97	.
CCCNC(=O)c1ccc(Cl)cc1Cl	95	.	.	.	i	1.1	.
C[C@@H]1C[C@H]2[C@@H]3CCC4=CC(=O)C=C[C@]4(C)[C@@]3(F)[C@@H](O)C[C@]2(C)[C@H]1C(=O)CO	100	-32	136	-9	i	0.86	1.0
S=C(Nc1cccc(Cl)c1)Nc1ccc2cn[nH]c2c1	82	0	93	43	i	0.83	-2.1
Cc1cccc2c1N(C)C(=O)C2=O	97	.	.	-4	i	0.96	.
Cc1nnc(SCc2ccc(Cl)cc2)nc1/C=C/N(C)C	100	.	.	7	i	0.98	.
CCCCNC(=O)Nc1nnc(C(C)(C)C)s1	99	.	.	.	i	0.89	.
O=C(Nc1ccc(Cl)c(Cl)c1)Oc1ccc(NC(=O)c2ccco2)cc1	101	.	.	1	i	0.8	-2.9
Clc1ccc(CNc2ccc3nnc(-c4ccccc4)n3n2)cc1	99	-22	143	-5	.	.	-1.7
CCNc1cc2n(c(=O)n1)CCc1cc(OC)c(OC)cc1-2	129	27	89	-9	i	0.95	-1.9
COCCCNC(=O)c1ccc(CNS(=O)(=O)c2ccc(NC(C)=O)cc2)cc1	118	.	.	0	.	.	-2.3
c1ccc(-c2onc3cc4c(cc23)OCCO4)cc1	94	-8	130	6	i	1.1	-1.5
COC(=O)c1ccccc1N(Cc1ccccc1)S(C)(=O)=O	140	-35	167	-9	i	0.84	-1.9
O=C(CCCN1C(=O)/C(=C\c2cccs2)SC1=S)Nc1ccccn1	95	.	.	-1	i	0.89	.
CCOC(=O)COc1c(OC)cc(Cl)cc1C1Nc2ccccc2C(=O)N1c1ccccc1 (configuration not stated)	103	3	68	0	i	0.93	-2.4
Cc1ccc(C)c(NC(=S)NC(NC(=O)OCc2ccccc2)C(Cl)(Cl)Cl)c1 (configuration not stated)	109	-59	97	-9	i	0.92	-0.9
O=C(Nc1ccccc1)c1cn2ccccc2n1	88	.	.	.	i	1.2	.
C/C(=N\NC(N)=S)c1ccc2c(c1)OCCO2	91	.	.	.	i	1.2	.
CCCC1=C(C(=O)OCC)C(c2cccnc2)n2nc(C)nc2N1 (configuration not stated)	104	.	.	.	i	0.91	.
NS(=O)(=O)c1ccc(CNC(=O)C2CCCCC2)cc1	121	5	80	0	i	1.1	-3.4
COc1cccc(/C=N/Nc2nc(N3CCCC3)nc(N3CCCC3)n2)c1O	93	-16	116	-4	i	0.98	-1.4
Nc1c(S(=O)(=O)c2cccs2)c2nc3ccccc3nc2n1Cc1ccc2c(c1)OCO2	107	-19	69	4	i	0.59	1.2
COc1cccc(CNc2ccc(C)c(Cl)c2)c1	102	.	.	-6	i	1.1	.
C=CCn1c(C)cc(-c2csc(NCC)n2)c1C	89	.	.	8	i	1.3	.
COC(=O)c1ccc(CSc2nncn2C)cc1	100	-12	126	-14	i	1.1	-1.0
COC(=O)c1ccc(NC(=O)CCN2CCN(c3ccccc3)CC2)cc1	99	.	.	0	i	0.81	-0.9
CCOc1ccc(NC(=O)c2ccc(OC)cc2)cc1	102	-3	159	-12	i	0.86	-2.6
Cc1cc(C)c(S(=O)(=O)n2c([N+](=O)[O-])cnc2C)cc1C	56	-20	97	12	i	0.94	-1.0
CCOC(=O)c1c(NC(=O)C2c3ccccc3Oc3ccccc32)sc(C(=O)N(CC)CC)c1C	100	.	.	1	i	0.88	-1.0
The list goes on.
SMILES	RGS16-Gao	Insulin prom inh	Insulin prom inh cell count	PKD1 inh	HSV replic up	HSV replic up primary fold	GALR2 ag
CCNC(=O)COC(=O)c1csc2c1CCCC2	103	.	.	5	i	0.96	0.3
Nc1nc(SCC(=O)c2ccc(F)cc2)n[nH]1	105	33	140	-5	i	0.95	.
C/C(CC(=O)NC(C)(C)C)=N\NC(N)=S	105	.	.	-2	i	1.1	.
C=CCSc1nnc(NC(=O)CSc2nc(CCC)cc(=O)[nH]2)s1	155	-453	62	-11	i	0.89	-1.3
Cc1nn(-c2ccccc2Cl)c2sc(C(=O)Nc3nnc(C4CC4)s3)cc12	102	-11	147	-4	i	1.2	0.3
COC(=O)C(C)N(C(=O)c1ccc(Cl)cc1)c1c(C)cccc1C (configuration not stated)	105	-22	86	1	i	1	-0.1
CC(C)(C)CC(=O)Nc1nnc(SCC(=O)Nc2ccccc2F)s1	101	53	93	-2	i	0.92	.
Cn1c(Cc2ccccc2)nnc1SCc1nc2ccccc2c(=O)[nH]1	110	33	65	-6	i	0.95	.
Cc1nnc(NC(=O)CSc2ccccn2)s1	104	.	.	-6	i	0.85	0.3
N#CC(c1ccc(Cl)cc1)N1CCOCC1 (configuration not stated)	104	.	.	0	i	1	.
O=C(CC12CC3CC(CC(C3)C1)C2)N1CCN(S(=O)(=O)c2cccs2)CC1	111	38	115	-9	.	.	0.1
O=C(Nc1ccc(S(=O)(=O)Nc2ncccn2)cc1)c1ccc(N2CCCC2=O)cc1	99	.	.	.	i	1	.
Cc1ccc(OCC(=O)N/N=C\c2c(C)[nH]n(-c3ccccc3)c2=O)c([N+](=O)[O-])c1	102	29	125	11	i	1	-0.2
CCCCNC(=O)Nc1cc(C(=O)OC)ccc1Cl	125	11	154	1	i	0.99	-0.4
O=C1C2C3c4ccccc4C(Br)(c4ccccc43)C2C(=O)N1c1ccccc1O (configuration not stated)	102	7	103	0	i	0.92	-0.6
Cc1c(Cl)cccc1NC(=S)NCCCN(C)C	94	25	96	-4	i	0.85	0.6
O=C(O)Cc1n[nH]c(=O)c2ccccc12	104	-43	103	-13	i	0.89	-2.9
COC(=O)C1=C(C)N(Cc2ccc(C)cc2)C(=O)/C1=C\c1ccc(O)c(OC)c1	94	-26	112	-9	i	1	-3.5
NC(=O)[C@H]1CC2(CC(c3cccc(NC(=O)COc4ccc(Cl)cc4)c3)=NO2)CN1C(=O)C(c1ccccc1)c1ccccc1 (some centres not stated)	105	.	.	.	i	0.67	.
CCOC(=O)C(C)Sc1nc2c([nH]c3ccccc32)c(=O)n1C (configuration not stated)	103	21	105	-8	i	0.75	-0.3
CC(C)(C)NCCCOc1ccc(Cl)cc1C(C)(C)C	100	-108	74	8	.	.	0.7
CCOc1ccccc1-n1cnc(C#N)c1N	99	10	125	0	i	0.93	.
CCOc1ccccc1NC(=O)CSc1nnc(CNC(=O)COc2ccc(Cl)cc2)o1	33	.	.	5	i	0.86	-3.0
N#C/C(=C\c1ccccc1Cl)C(=O)NC(=O)Oc1ccccc1	105	-71	219	-7	i	0.92	-2.6

Complete entries, quoted from the list. Order of values: RGS16-Gao	Insulin prom inh	Insulin prom inh cell count	PKD1 inh	HSV replic up	HSV replic up primary fold	GALR2 ag
Shown for CCOc1ccccc1-n1cnc(C#N)c1N : 99	10	125	0	i	0.93	.
Shown for N#C/C(=C\c1ccccc1Cl)C(=O)NC(=O)Oc1ccccc1 : 105	-71	219	-7	i	0.92	-2.6
Shown for O=C1C2C3c4ccccc4C(Br)(c4ccccc43)C2C(=O)N1c1ccccc1O (configuration not stated) : 102	7	103	0	i	0.92	-0.6
Shown for CCOc1ccccc1NC(=O)CSc1nnc(CNC(=O)COc2ccc(Cl)cc2)o1 : 33	.	.	5	i	0.86	-3.0
Shown for Cc1ccc(OCC(=O)N/N=C\c2c(C)[nH]n(-c3ccccc3)c2=O)c([N+](=O)[O-])c1 : 102	29	125	11	i	1	-0.2

Another view of part of the listing above:
Under each structure – RGS16-Gao | Insulin prom inh | Insulin prom inh cell count | PKD1 inh | HSV replic up | HSV replic up primary fold | GALR2 ag
CC1=Nc2ccc3ccccc3c2C1(C)C
→ 105 | -160 | 133 | -1 | . | . | .
CC(NC(=O)Nc1ccc([N+](=O)[O-])cc1)C(c1ccccc1)N1CCOCC1 (configuration not stated)
→ 104 | -7 | 63 | -10 | i | 0.92 | .
CCC/C(=N/NC(=O)c1ccc2c(c1)OCO2)c1cccs1
→ 121 | 38 | 81 | 1 | i | 0.82 | -0.5

Further results:
SMILES	RGS16-Gao	Insulin prom inh	Insulin prom inh cell count	PKD1 inh	HSV replic up	HSV replic up primary fold	GALR2 ag
CCOc1ccc(CNc2cccc(SC)c2)cc1	102	11	102	-4	i	1.1	.
CCN(CC)C(=O)/C=C/c1ccc(OC)c(S(=O)(=O)N2CCCCC2)c1	102	20	116	-4	i	0.87	.
Cc1cccc(-n2c(=O)[nH]c3c(C(N)=O)nc(-c4ccccc4Cl)nc32)c1	87	.	.	-11	.	.	2.0
CC1=CCC2COC(c3ccc[n+](Cc4ccccc4)c3)C1C2 (configuration not stated)	101	7	127	4	i	1.1	-0.6
CCOC(=O)c1c[nH]c2c(C(F)(F)F)cccc2c1=O	24	.	.	-4	i	1.1	.
COc1cccc(-n2ccnc2SCC(=O)Nc2cc(C)on2)c1	103	.	.	-7	i	1	.
CC(C)(C)C(=O)Nc1nnc(SCc2ccc(F)cc2)s1	110	-12	125	-1	i	0.7	-1.9
CCOC(=O)Cn1nnc2c(sc3nc4c(c(-c5ccccc5)c32)CCC4)c1=O	98	-14	116	-6	i	0.84	-3.0
